Compound activity: PubChem, several laboratories
PERK inh = blocks human PERK kinase; AID 1416; 220,000 compounds, 0.17% hits; inhibition, % at 5.6 µM; CHO PERK-DD fusion, SEAP luminescence translation reporter; Q9NZJ5;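 active means inhibition above the mean inhibition of all tested compounds plus 3 SD, set separately per screening campaign, cut at about 2.9% in these data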;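 further: PERK kinase domain activated by AP20187 dimerizer at 100 nM; 0% = DMSO with dimerizer and 100% = rapamycin at 8.4 µM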
p97 inhibitor = blocks human p97 ATPase activity | 220,000 compounds, 0.42% hits | P55072 | recombinant p97 ATPase, Kinase-Glo ATP luminescence, 3 h | inhibition, % at 8 µM | AID 1481; in the data active means inhibition above about 15%;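 further: 0% = DMSO vehicle and 100% = wells lacking enzyme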
KCC2 mod = KCC2 (human) Cl- transport modulation. Q9H2X9. KCC2 cells, thallium flux FluoZin-2 fluorescence. B-score of Tl+ flux slope (higher = more flux/activation; lower = inhibition) at 10 µM. 190,000 compounds, 2.2% hits. AID 1456;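 active means thallium flux slope and its plate-corrected score both differing from the plate sample mean at a set confidence after two filtering rounds, in either direction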;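 further: slope of fluorescence scaled to starting intensity during 10 to 20 s after thallium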
Thrombin inh = blocks human thrombin protease activity; alpha-thrombin, Boc-VPR-AMC fluorogenic substrate cleavage; 220,000 compounds, 0.26% hits; AID 1046; P00734; inhibition, % at 5 µM;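 active means inhibition at or above 40%; inactive means inhibition below 40%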;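 further: 0% = enzyme with no compound and 100% = wells without enzyme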
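System: Human alpha-thrombin protein | Medium: pH 7.5 Tris (50 mM) with NaCl 150 mM, Tween 20 0.05% | Times: Enzyme reaction carried out at room temperature | Detection: AMC fluorescence, 355/460 nm | Evaluation: Percent inhibition scaled between no-compound controls and no-enzyme blanks | Benchmarks: Enzyme without compound as high, wells lacking enzyme as low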
hK5 inh = blocks human kallikrein 5 protease activity; inhibition, % at 5 µM; Q9Y337; recombinant hK5, fluorogenic AMC substrate cleavage; AID 873; 210,000 compounds, 0.59% hits;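 active means inhibition of 40% or more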;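 further: 0% = enzyme controls without compound and 100% = no-enzyme blanks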
Target sequence (Q9Y337 67-293 limits assumed): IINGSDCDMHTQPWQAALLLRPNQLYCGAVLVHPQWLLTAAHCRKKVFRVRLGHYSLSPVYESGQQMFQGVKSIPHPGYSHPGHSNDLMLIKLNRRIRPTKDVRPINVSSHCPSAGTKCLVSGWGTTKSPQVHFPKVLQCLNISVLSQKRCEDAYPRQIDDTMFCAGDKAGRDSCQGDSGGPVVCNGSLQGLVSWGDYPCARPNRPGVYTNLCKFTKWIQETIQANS
Wee1 degr inh = inhibitors of human Wee1 degradation; HeLa Luc-Wee1K328M stability, luciferase luminescence; 100% = proteasome inhibitor MG132 effect; reporter increase, % at 5 µM; 220,000 compounds, 1.2% hits; AID 1321;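 active means activation above the mean of all tested compounds plus 3 SD, set per screening run, cut at about 8.8% in these data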;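 further: cells exposed to compound for 20 h before luminescence read; 0% = DMSO alone and 100% = MG132 at 30 µM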
Furin inhibitor = blocks human furin protease activity; P09958; 220,000 compounds, 0.061% hits; inhibition, % at 30 µM; purified furin, fluorogenic substrate cleavage; in the data active means inhibition above about 25%; further: inactives centre near -15
Target sequence (P09958 108-714 limits assumed): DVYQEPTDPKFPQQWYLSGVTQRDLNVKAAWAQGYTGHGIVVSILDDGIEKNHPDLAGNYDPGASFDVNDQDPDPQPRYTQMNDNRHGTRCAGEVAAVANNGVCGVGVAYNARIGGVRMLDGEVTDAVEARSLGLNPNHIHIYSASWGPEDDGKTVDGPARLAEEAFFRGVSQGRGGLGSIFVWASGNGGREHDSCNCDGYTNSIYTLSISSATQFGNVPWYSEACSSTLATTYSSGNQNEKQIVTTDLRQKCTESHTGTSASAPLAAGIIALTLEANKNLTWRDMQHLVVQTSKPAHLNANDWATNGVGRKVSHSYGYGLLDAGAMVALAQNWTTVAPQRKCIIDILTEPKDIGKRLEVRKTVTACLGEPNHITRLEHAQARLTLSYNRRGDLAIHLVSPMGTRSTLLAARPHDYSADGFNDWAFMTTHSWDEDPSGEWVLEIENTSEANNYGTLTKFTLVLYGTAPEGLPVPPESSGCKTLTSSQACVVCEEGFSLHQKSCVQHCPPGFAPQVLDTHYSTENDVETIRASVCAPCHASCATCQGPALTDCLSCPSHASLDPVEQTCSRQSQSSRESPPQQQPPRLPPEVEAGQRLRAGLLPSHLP
An asterisk follows results filed as active; . = no result given; [ ] = another dose, or the depositor's remark.

SMILES	PERK inh	p97 inhibitor	KCC2 mod	Thrombin inh	hK5 inh	Wee1 degr inh	Furin inhibitor
CCOC(=O)N1CCN(C(=O)CNC2CCCCCCC2)CC1	0.4	-4	-0.39	-8	3	4	-11
COc1ccc(OC)c2sc(NC(=O)C3=COCCO3)nc12	0.7	8	1.1	1	-7	4	-18
CC1(C)CC(=O)C=C(OC(=O)c2ccc(Cl)cc2)C1	1.2	3	0.07	-8	-19	0	-18[20 µM]
COc1ccc(Nc2n[nH]c(N)c2C(N)=O)cc1	1.7	-3	-0.62	-2	-25	3	-18
COc1ccc(C2=NOC(C(=O)N3CCOCC3)C2)cc1OC (stereo not drawn)	0.7	-2	.	0	4	0	-15
O=C(NC1CCCCC1)C1CCN(c2nccs2)CC1	1.1	4	.	-3	2	0	-21
COc1ccccc1NC(=O)C(=O)N(c1cccnc1)C(C(=O)NC(C)(C)C)c1ccccc1 (stereo not drawn)	0.6	3	-0.47	-1	-2	0	-15
COc1cccc(OCC(=O)Nc2cc(Cl)ccc2Oc2ccccc2)c1	-0.4	0	0.29	0	-15	-2	-12
COC(=O)c1ccccc1NC(=O)C1CC(c2ccc(F)cc2)=NO1 (stereo not drawn)	-0.5	1	-0.056	4	-1	-1	-17
CN(C)S(=O)(=O)c1ccc(NC(=O)CSc2nc3ccccc3n2-c2ccccc2)cc1	-0.7	3	0.28	-2	-7	-2	-19
Cc1ccc(NC(=O)COC(=O)/C=C/c2ccco2)cc1S(=O)(=O)N(C)C	1.6	-8	-0.86	-6	-9	3	4
COc1ccc(C2C(C(=O)O)c3ccccc3C(=O)N2Cc2ccco2)cc1 (stereo not drawn)	0.5	7	-0.53	-5	1	0	-13
COCc1cc(=O)[nH]c(/N=C(\N)Nc2cccc(C)c2)n1	0.8	-4	-0.13	-3	2	2	-8[20 µM]
Cc1cc(-c2n[nH]c(=S)n2/N=C/c2cccc(O)c2)n[nH]1	1.9	0	-0.074	-4	17	-2	-16
O=C(NCCCCCNC(=O)c1ccccn1)c1ccccn1	-1.4	-3	0.46	17	-5	-3	-2
COCCn1c(=NC(=O)CSCC(=O)Nc2cc(C)on2)sc2cc(C(=O)OC)ccc21	0.0	9	-0.38	0	-4	3	-8
Cc1cccc(N2CCN(C(=O)C3CCN(S(=O)(=O)N4CCOCC4)CC3)CC2C)c1 (stereo not drawn)	1.0	1	-1.4	-2	7	0	-23
O=C(c1ccc2c(c1)OCO2)n1nnc2ccccc21	0.5	1	-2.2	-2	-3	-1	-9
CCc1ccccc1NC(=O)Nc1cc(F)ccc1F	0.4	2	0.88	-1	1	1	-12
CC(C)Nc1ncnc2c1cnn2-c1ccc(Cl)cc1	-0.4	-3	-0.25	-6	2	3	-18
COc1ccc2c(c1)Cc1sc(NC(=O)c3ccccc3)nc1-2	-0.2	18*	.	7	-2	2	-20[20 µM]
COCCCN1C(=O)C(=O)/C(=C(/O)c2ccc(C)cc2)C1c1ccccc1 (stereo not drawn)	1.0	3	.	2	9	-2	-23
O=C(COc1ccccc1)NCC(=O)N/N=C/C=C/c1ccccc1	0.5	1	0.54	-10	-7	4	-20
Cc1ccc(OCC(=O)NNC(=O)CSc2ncc(C#N)c(N)n2)cc1	1.0	1	1.1	-6	-10	0	-12
O=C(c1ccccn1)N1CCN(S(=O)(=O)c2ccccc2)CC1	1.4	1	-0.03	-2	1	-2	-32
SMILES	PERK inh	p97 inhibitor	KCC2 mod	Thrombin inh	hK5 inh	Wee1 degr inh	Furin inhibitor
COc1ccc2[nH]c(C)c(C(=O)CN3CCOCC3)c2c1	-1.0	5	.	-10	-22	2	-25
Cn1c(SCC(=O)NC2CC2)nnc1C(F)(F)F	-0.3	1	1.4	-13	-4	-4	-16
CCOC(=O)c1cc(C(=O)OCC)c(=O)[nH]c1N1CCCC1	1.2	2	-0.48	-7	-13	2	2
COc1ccc(C(=O)Nc2ccc(C3(C#N)CCCC3)cc2)cc1	0.9	3	-0.019	-5	4	-2	-24
O=C(O)CN1C(=O)SC(Nc2ccc(C(=O)O)cc2)C1=O (stereo not drawn)	0.2	1	0.41	-2	2	-1	-34[20 µM]
CCCc1ccc(OCc2ccc(C(=O)OC)o2)c(OC)c1	0.6	6	1.4	-1	-11	1	10[20 µM]
CC(C)C(C)(C#N)NC(=O)CSc1nnc(C(F)(F)F)n1C (stereo not drawn)	-0.6	4	-1.8	-14	0	-2	-23[20 µM]
Cc1cc2nc(CN(C)Cc3c(C(=O)N(C)C)nc4ccc(Cl)cn34)[nH]c2cc1C	-0.1	3	0.5	-8	-8	-1	-22
CN(C)CCN1C(=O)C(=O)/C(=C(/O)c2ccc3c(c2)OCCO3)C1c1ccccn1 (stereo not drawn)	-0.6	4	1.1	-1	-1	2	-4
O=C(CSc1nc(-c2ccco2)cc(C(F)(F)F)n1)N1CCSCC1	-0.3	2	-0.044	4	-1	12*	-11[20 µM]
CCCNc1nc(C)cc(-c2cc(-c3ccc(Cl)cc3)on2)n1	.	.	-0.39	-4	-1	.	-18
C=CCn1c(CCNC(=O)c2ccccc2F)nnc1SCC(=O)Nc1ccc(OC)cc1	-0.1	2	-0.29	-11	-1	3	-9
CCCN1CCc2c(sc(NC(=S)NC(=O)c3ccccc3)c2C#N)C1	1.2	-1	-0.18	9	3	-1	-9
COc1ccc(S(=O)(=O)n2nc(OC(=O)C3CCCCC3)cc2N)cc1	1.4	7	.	13	24	0	-20
O=C(CSc1ncccn1)N1CCc2ccccc2C1	0.0	0	0.52	-2	1	-3	-24
FC(F)(F)c1cc(-c2cccs2)nc2cc(-c3ccccc3)nn12	1.1	4	-0.9	-4	-26	-1	-24
COc1ccc(C2=NOC(C(=O)NC3CCCCC3)C2)cc1OC (stereo not drawn)	-0.9	-1	-0.037	5	-12	1	-21[20 µM]
CCCc1cc(=O)[nH]c(/N=C(\N)Nc2ccccc2)n1	1.2	-1	1.3	2	-10	3	-15[20 µM]
Cc1ccc(C2/C(=C(\O)c3ccc4c(c3)OCCO4)C(=O)C(=O)N2CCCN(C)C)o1 (stereo not drawn)	0.6	7	.	1	5	-2	1
CN1C(=S)N(c2ccccc2)C(=O)/C1=C/c1cccs1	-0.4	2	2	-2	-15	1	0
CCCCc1c(O)nc2sc3cc(OC)ccc3n2c1=O	0.3	-3	0.22	1	-14	0	-12[20 µM]
O=c1cc(O)c2sc3nc(-c4cccnc4)cc(C(F)(F)F)c3c2[nH]1	0.8	4	-0.17	-6	-3	0	-1
O=c1ccn(Cc2ccc(F)cc2)c2ccnc(C(F)(F)F)c12	-0.6	-4	-2.3	-3	-4	1	-7
O=c1c2ccccc2nc(-c2ccoc2)n1CCc1ccccc1	-1.3	1	-0.75	4	-3	1	-20[20 µM]
O=C(NCCCN1CCOCC1)c1cccc(S(=O)(=O)Nc2cc(Cl)ccc2Cl)c1	0.6	-3	-0.73	-5	-5	4	-17

Entries of single compounds, looked up by structure.
Listed for CCCN1CCc2c(sc(NC(=S)NC(=O)c3ccccc3)c2C#N)C1 : PERK inh = 1.2; p97 inhibitor = -1; KCC2 mod = -0.18; Thrombin inh = 9; hK5 inh = 3; Wee1 degr inh = -1; Furin inhibitor = -9
Listed for COc1ccc(S(=O)(=O)n2nc(OC(=O)C3CCCCC3)cc2N)cc1 : PERK inh = 1.4; p97 inhibitor = 7; KCC2 mod = .; Thrombin inh = 13; hK5 inh = 24; Wee1 degr inh = 0; Furin inhibitor = -20

(cont.)
SMILES	PERK inh	p97 inhibitor	KCC2 mod	Thrombin inh	hK5 inh	Wee1 degr inh	Furin inhibitor
CC(C)[C@H](NC(=O)c1ccccc1)C(=O)OCC(=O)c1ccc2c(c1)NC(=O)CO2	0.4	3	0.37	9	-3	-1	-9[20 µM]
COCCOc1cc(N)c(Cl)cc1Cl	1.1	7	.	-5	-1	2	-15
CCN1CCCC1CNS(=O)(=O)c1ccc(Cl)c(C(F)(F)F)c1 (stereo not drawn)	2.1	4	-0.1	-3	-5	-3	-21
Cc1cccc(N2CCN(C(=O)c3ccc(N4CCCC4=O)cc3)CC2C)c1 (stereo not drawn)	-0.1	0	.	-3	-6	-1	-8
CCOC(=O)N1CCN(C(=O)c2ccc(CNS(=O)(=O)c3ccc(OC)cc3)cc2)CC1	0.0	2	.	-3	2	0	-27
O=C1Nc2ccccc2/C1=C/C(=O)c1cccs1	-0.2	-1	-0.93	-3	2	-1	-16[20 µM]
NC1=NC2(CCCCCC2)n2c(nc3ccccc32)N1	-0.8	-1	0.56	0	2	0	-10[20 µM]
CNC(=O)c1[nH]cnc1C(=O)Nc1ccccc1C	1.2	-4	0.53	-5	-13	0	-20[20 µM]
COc1cccc(C2=NOC(C(=O)NCc3ccc(F)cc3)C2)c1 (stereo not drawn)	2.0	4	-0.95	-8	-1	1	-13
CCC(=O)Oc1ccc2c(C)cc(=O)oc2c1C	1.3	-5	0.024	-6	-21	-2	-27
O=C(COc1ccccc1Cl)NCc1ccco1	0.7	-2	.	4	-12	2	-4[20 µM]
COC(=O)CNC(=O)COc1ccccc1	-0.1	-2	-0.036	-4	14	0	-10[20 µM]
Cc1onc(-c2ccccc2)c1C(=O)NC(=S)Nc1sc2c(c1C#N)CCCC2	-0.6	-1	23*	-8	-4	5	-4
COc1cc2c(cc1OC)C1(CCCC1)CNC2c1ccc([N+](=O)[O-])cc1 (stereo not drawn)	-0.1	-4	0.7	26	5	0	-12
COc1cccc(OCC(=O)NNC(=O)c2cccs2)c1	0.5	2	0.38	-4	-14	-2	-19[20 µM]
Cc1ccnc(SCCn2c(N3CC(C)OC(C)C3)nc3c2c(=O)n(C)c(=O)n3C)n1 (stereo not drawn)	0.8	4	-0.44	-12	-2	1	-12
CCc1cccc2c(C(=O)COC(=O)c3nn(C)c(=O)c4ccccc34)c[nH]c12	-0.4	1	0.0027	4	-2	1	-23[20 µM]
COc1ccc(CC(=O)Nc2ccc(-c3noc(-c4cccc(OC)c4)n3)cc2)cc1	-0.7	-1	2.3	-2	13	-3	-8
COc1ccc(C)c2sc(NC(=O)C3=COCCO3)nc12	-0.4	7	.	0	4	0	-28
C=CCn1c(=O)c2ccccc2n2c(Sc3nnnn3-c3ccccc3)nnc12	0.8	-3	0.029	1	5	1	-11
C=CCNc1nc(-c2ccccc2)c(C(=O)OCC)cc1C#N	0.6	2	.	2	-19	1	-12[20 µM]
Cc1cccc(NC(=O)c2nc[nH]c2C(=O)N[C@@H](C)C(=O)OC(C)(C)C)c1	.	.	2.7	4	-9	.	-25
O=C(COc1ccccc1Cl)Nn1cnnc1	2.0	2	0.0053	-3	3	-3	-23
COC(=O)N/N=C\c1ccc(OC(=O)c2ccco2)cc1	0.3	3	0.84	8	-11	-1	-23
O=C(Oc1ccc2c(-c3ccccc3)cc(=O)oc2c1)c1cccs1	0.5	5	0.56	3	-11	3	-2
SMILES	PERK inh	p97 inhibitor	KCC2 mod	Thrombin inh	hK5 inh	Wee1 degr inh	Furin inhibitor
Cc1cnn(C(=S)NCc2ccco2)c1	1.4	-2	1.3	-4	-18	-2	-19[20 µM]
O=C(N/N=C/c1ccsc1)c1ccc2ccccc2n1	0.8	-1	-0.56	0	2	2	-21
CCN(CC)S(=O)(=O)c1cccc(NC(=O)COC(=O)c2ccc(Br)o2)c1	0.4	1	-1	28	0	2	-15[20 µM]
S=c1[nH]nc(-c2cccnc2)n1/N=C/c1ccccc1	1.5	3	-0.021	0	0	-1	-13
CCN(CC)S(=O)(=O)c1ccc(/C=C/C(=O)OCC(=O)Nc2cccc3ccccc23)cc1	0.7	4	-0.33	0	19	5	-15
COC(=O)c1ccc(Oc2cc(C)nc(-n3nc(C)cc3C)n2)cc1	-1.9	-4	0.15	6	-14	6	-13
CCOC(=O)/C(=N/O)C1=NC(C)(C)Cc2cc(C)c(C)cc21	1.2	2	.	-12	-1	-4	-17
Cc1nnc(SCC(=O)N(C)c2ccccc2)n1Cc1ccccc1	1.2	5	0.22	-2	-3	-2	-21
C/C(CC(=O)NCC(C)C)=N\NC(=O)COc1cc(C)c(Br)cc1Br	1.3	-3	-1.1	1	-12	0	-30

An excerpt; rates above refer to the full screens.
